GALR2 ag – agonists of human galanin receptor 2 (GALR2). activation, %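 (tested at 5 µM)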. AID 803. 140,000 compounds, 0.48% hits. O43603. GALR2-expressing cells, agonist activation read-out;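 active = above mean plus 3 SD of all compounds, about 5% in these data, not always enough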;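 note: 0% = vehicle buffer wells and 100% = reference agonist at full effect; tested in CHO reporter cells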
RGS16-Gao HTS – modulates binding between human RGS16 and Galphao | bead-based flow cytometry RGS16-Galphao binding, fluorescence; actives lie on both sides | AID 1441 | O15492+P09471 | 220,000 compounds, 0.38% hits | binding response (% of control), % at 10 µM;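 active = below 25% or above 175%, edge rows of some plates excepted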;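 note: Galphao activated by GDP with aluminum fluoride before binding; 100% = wells without compound and 0% = beads without RGS; some results beyond the cut were filed as inactive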
HSV augment – HSV replication enhancement; 220,000 compounds, 0.005% hits; maximum fold increase; AID 1956; HSV replication augmentation in cells, fold increase;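 active = peak rise of 1.5-fold or more in the series; inconclusive = self-fluorescent or not available for retest; tested in PC3 cells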;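 note: first round at 10 µM; read as green reporter fluorescence; hits show the peak of a series up to 25 µM; 1 = signal of infected wells without compound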
Insulin prom inh – TRM-6 insulin promoter activity inhibition | TRM-6 cells (human fetal islet line), insulin promoter-eGFP reporter, imaging; reporter expression induced with tamoxifen | inhibition, % at 2 µM | 130,000 compounds, 0.9% hits | AID 1273;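 active = inhibition above the mean plus 3 SD, with well images judged a real hit on visual review, cut at about 60% in these data, passing the limit was not always enough; inconclusive = inhibition over the cutoff but images rejected on review; inactive = inhibition not above the cutoff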
PKD1 kinase inh – blocks activity of human protein kinase D1 | inhibition, %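 (about 10 µM by stock and volumes)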 | PKD1 kinase fluorescence polarization assay | Q15139 | AID 797 | 200,000 compounds, 0.056% hits;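 active = inhibition of 50% or more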;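 note: controls were vehicle for no effect and a reference inhibitor for full effect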
Target sequence (Q15139 whole entry, looked up): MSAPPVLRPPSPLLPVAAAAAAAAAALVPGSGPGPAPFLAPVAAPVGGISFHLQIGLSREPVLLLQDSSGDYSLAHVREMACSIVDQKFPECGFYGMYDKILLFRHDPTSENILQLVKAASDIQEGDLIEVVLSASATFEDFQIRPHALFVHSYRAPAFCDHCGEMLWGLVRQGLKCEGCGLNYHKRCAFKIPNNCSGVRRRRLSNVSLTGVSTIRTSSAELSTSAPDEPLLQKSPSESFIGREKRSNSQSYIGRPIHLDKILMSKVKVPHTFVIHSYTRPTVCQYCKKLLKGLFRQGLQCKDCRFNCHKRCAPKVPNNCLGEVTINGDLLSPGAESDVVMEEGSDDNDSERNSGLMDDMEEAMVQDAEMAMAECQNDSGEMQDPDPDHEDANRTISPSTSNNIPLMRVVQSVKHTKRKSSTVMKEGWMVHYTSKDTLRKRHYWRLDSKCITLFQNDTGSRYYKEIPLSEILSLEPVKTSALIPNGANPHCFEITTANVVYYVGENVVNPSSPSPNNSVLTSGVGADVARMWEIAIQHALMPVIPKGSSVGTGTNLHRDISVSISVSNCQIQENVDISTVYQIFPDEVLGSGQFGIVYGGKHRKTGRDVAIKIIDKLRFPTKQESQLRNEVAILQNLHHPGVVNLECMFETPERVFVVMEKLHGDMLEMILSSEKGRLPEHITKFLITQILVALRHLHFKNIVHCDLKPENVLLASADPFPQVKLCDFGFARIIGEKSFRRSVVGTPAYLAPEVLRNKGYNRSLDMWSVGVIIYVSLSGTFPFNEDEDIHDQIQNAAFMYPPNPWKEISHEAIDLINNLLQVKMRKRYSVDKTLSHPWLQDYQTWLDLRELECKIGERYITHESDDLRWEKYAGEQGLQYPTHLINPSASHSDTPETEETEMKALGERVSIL
Insulin prom inh cell count – recorded beside Insulin prom inh, whose call it bears; normalized cell count, %; measured here: cell count, toxicity; reference of the scale not given here;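 cells exposed to compound for 48 h; stained nuclei by imaging scaled within each plate; lower means fewer cells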
HSV augment primary fold – also measured in HSV augment; calls as there; fold increase; compound at 10 µM; measured here: primary screen fold increase 10 uM; tested in PC3 cells;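 GFP signal in the first replicate; 1 = infected wells without compound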
Starred values were filed as active, the others as inactive; i = inactive; ? = inconclusive; . = no result given. Hits appear at their usual frequency; overall some 1.3% were active at least once.

SMILES | GALR2 ag | RGS16-Gao HTS | HSV augment | HSV augment primary fold | Insulin prom inh | Insulin prom inh cell count | PKD1 kinase inh
Cc1cccc2nc3ccccc3nc12 | . | 100 | i | 0.86 | . | . | 1
Cc1cc(NC(=O)/C=C/c2ccccc2)c(C(C)C)cc1O | . | 98 | i | 0.97 | . | . | 4
Cn1c(=O)c(C#N)c(-c2ccc(F)cc2)c2cc(C(=O)c3cc(Cl)cc(Cl)c3O)cnc21 | . | 98 | i | 0.8 | . | . | .
O=C(CN1CCCN(Cc2ccc(F)cc2Cl)C1=O)NCc1ccccc1 | -2.1 | 103 | i | 1.1 | . | . | -5
CCc1nnc(NC(=O)c2ccc(S(C)(=O)=O)cc2)s1 | . | 105 | i | 1 | . | . | .
CCOC(=O)c1ccc(N2CN(CCc3ccccc3)CNC2=S)cc1 | -1.9 | 115 | i | 1 | . | . | -10
Cc1cccc(OCc2nnc(SCC(=O)Nc3cc(C)on3)n2C)c1 | -1.7 | 112 | i | 0.95 | -18 | 102 | 8
COc1ccc(C2CC(c3ccc(F)cc3)n3nc(NC(=O)c4ccco4)nc3N2)cc1 (centres undefined) | . | 104 | i | 0.94 | . | . | .
O=C(c1ccc([N+](=O)[O-])s1)N1CCc2ccccc2C1 | . | 97 | i | 1 | . | . | -10
O=C(Nc1ccc2c(c1)OCO2)C1CC(c2ccc(Cl)cc2)=NO1 (centres undefined) | -2.7 | 102 | i | 1 | -37 | 89 | -8
O=C(NC1CC2CCCC(C1)N2CC(=O)N1CCCc2ccccc21)C1CCCCC1 (centres undefined) | -0.2 | 101 | i | 0.93 | 38 | 66 | 4
N#Cc1ccccc1COC(=O)c1cccnc1N | . | 100 | i | 0.96 | . | . | -1
CCOCCCNC(=O)/C=C1\Sc2ccccc2N(Cc2ccccc2F)C1=O | . | 102 | i | 0.88 | -22 | 140 | -11
C[C@@H]1CC[C@H]2C(=O)N3[C@@H](CC[C@@H](C)[C@@H]3c3ccc(Br)cc3)C(=O)N2[C@H]1c1ccc(Br)cc1 | -0.8 | 93 | i | 0.78 | -30 | 99 | -12
COc1ccc(-n2c(=O)c3ccccc3n(CC(=O)NC3CCCCC3)c2=O)cc1 | -2.3 | 88 | i | 0.89 | 29 | 134 | -17
COc1ccc(C(C)=O)cc1COC(=O)c1ccc2c(c1)OCO2 | -3.6 | 102 | i | 0.99 | . | . | -9
O=C(COC(=O)c1ccc(Br)o1)Nc1nc2ccccc2s1 | -1.3 | 102 | i | 0.83 | . | . | -9
NC(=O)C[n+]1cccc2ccccc21 | -1.3 | 88 | i | 1.1 | 19 | 109 | -2
C=CCn1cc(/C=C2\SC(N3CCOCC3)=NC2=O)c2ccccc21 | . | 100 | i | 0.83 | . | . | .
N#CC(C#N)=C1c2cc(S(=O)(=O)NCCO)ccc2-c2ccc(S(=O)(=O)NCCO)cc21 | . | 93 | i | 0.94 | . | . | .
CC1(C)Cc2c(ccc3ccccc23)C(c2cc3ccccc3oc2=O)=N1 | -0.7 | 100 | i | 0.92 | 17 | 60 | -9
Cc1ccc2cc(CN(C(=O)c3cccnc3)C(C)C)c(=O)[nH]c2c1 | -0.8 | 102 | i | 1.1 | -41 | 103 | -3
CC1(C)C(=O)OC(c2cccn2-c2ccc([N+](=O)[O-])cc2)C2(CCCCC2)C1=O (centres undefined) | -1.2 | 153 | i | 1.2 | . | . | 8
COCCN(CCOC)C(=S)Nc1ccccc1 | . | 102 | i | 0.96 | -20 | 80 | 4
CN(C(=S)NCCN1CCOCC1)C(c1ccccc1)c1ccccc1 | . | 93 | i | 0.84 | . | . | -4
Cc1cc(C(=O)OCC(=O)Nc2ccccc2)c(C)o1 | . | 97 | i | 1 | -76 | 103 | -4
CC12C(=O)N(c3nccs3)C(=O)C1C1C=CC2C1 (centres undefined) | -1.9 | . | i | 1.3 | 17 | 85 | -3
CC(=Nc1ccc(C)cc1C)c1sc2ccccc2c1O | . | 107 | ? | . | . | . | -8
CC(C)(C)n1ncc2c(=O)n(CC(=O)NCc3ccc(F)cc3)cnc21 | -0.3 | 101 | i | 0.85 | . | . | -7
CC(C)Oc1ccccc1C1CC(=O)Nc2cc3c(cc21)OCO3 (centres undefined) | 2.5 | 95 | i | 0.53 | -300 | 5 | 16
SC(COCc1ccccc1)CN1CCN(Cc2ccc3c(c2)OCO3)CC1 (centres undefined) | -1.6 | 101 | i | 0.93 | . | . | -13
CN(C)c1ccc(C2/C(=C(/O)c3ccccc3)C(=O)C(=O)N2CCCC(=O)O)cc1 (centres undefined) | . | 104 | i | 1 | . | . | .
BrC(=C\c1ccccc1)/C=N/Nc1nc2ccccc2[nH]1 | -0.8 | 104 | i | 0.76 | 33 | 113 | 14
Cc1[nH]n(-c2ccccc2)c(=O)c1C=Nc1cnc2ccccc2c1 | -2.0 | 103 | i | 0.91 | 58 | 122 | -1
COc1ccc(CC(=O)NC(C)c2nnc(SCc3nc4ccccc4c(=O)[nH]3)n2C)cc1 (centres undefined) | -1.0 | 94 | i | 0.9 | -29 | 109 | -7
O=S(N1CCc2ccccc21)C12CC3CC(CC(C3)C1)C2 (centres undefined) | . | 103 | i | 1.1 | . | . | -3
Cc1cc(C)c(C)c(S(=O)(=O)NCc2cccnc2)c1C | -1.7 | 101 | i | 0.97 | -28 | 89 | -2
Cc1cc2oc(=O)cc(Cn3ccnc3)c2cc1C | -1.6 | 102 | i | 0.89 | -40 | 165 | 0
CC(C)(C)NC(=O)CN(C(=O)Cn1nnc(-c2ccccc2F)n1)c1cccc2c1CCCC2 | 1.8 | 109 | i | 0.75 | 48 | 87 | 4
O=S(=O)(c1ccc2c(c1)OCCO2)N1CCC(c2nc3ccc(Cl)cc3[nH]2)CC1 | -1.7 | 96 | i | 1.1 | . | . | 3

The last four records of the part above come first, to join the parts.
SMILES | GALR2 ag | RGS16-Gao HTS | HSV augment | HSV augment primary fold | Insulin prom inh | Insulin prom inh cell count | PKD1 kinase inh
Cc1cc(C)c(C)c(S(=O)(=O)NCc2cccnc2)c1C | -1.7 | 101 | i | 0.97 | -28 | 89 | -2
Cc1cc2oc(=O)cc(Cn3ccnc3)c2cc1C | -1.6 | 102 | i | 0.89 | -40 | 165 | 0
CC(C)(C)NC(=O)CN(C(=O)Cn1nnc(-c2ccccc2F)n1)c1cccc2c1CCCC2 | 1.8 | 109 | i | 0.75 | 48 | 87 | 4
O=S(=O)(c1ccc2c(c1)OCCO2)N1CCC(c2nc3ccc(Cl)cc3[nH]2)CC1 | -1.7 | 96 | i | 1.1 | . | . | 3
Cc1ccc(NC(=S)NCc2ccc(S(N)(=O)=O)cc2)c(C)c1 | . | 101 | i | 1.2 | 18 | 86 | -4
S=c1[nH]nc(C2COc3ccccc3O2)o1 (centres undefined) | -3.1 | 104 | i | 0.94 | -92 | 62 | 0
Cc1c(C(=O)O)cccc1-c1ccc(/C=C2/NC(=O)N(c3ccccc3)C2=O)o1 | . | 108 | i | 0.99 | . | . | -8
COc1ccccc1NC(=O)Nc1c(C)n(C)n(-c2ccccc2)c1=O | -0.3 | 104 | i | 1.1 | 100* | 17* | -4
COc1ccccc1CC(=O)Nc1ccc(O)cc1C(=O)O | -2.5 | 94 | i | 0.96 | 8 | 113 | -2
NS(=O)(=O)c1ccc(CNC(=O)c2ccccn2)cc1 | . | 97 | i | 1 | . | . | .
O=C(CSc1ccccc1C(=O)O)NC1CCCCCCC1 | 0.4 | 98 | i | 0.95 | 0 | 174 | -4
N=c1n(CCN2CCCCC2)c2ccccc2n1CC(=O)c1ccc(Cl)c(Cl)c1 | . | 109 | i | 0.73 | . | . | .
C/C=C/c1ccc(OCCCN2C(=O)NC(C)(C)C2=O)c(OC)c1 | -0.3 | 106 | i | 1 | . | . | 2
COc1cc(OC)c2c(-c3ccccc3)cc(=O)oc2c1 | . | 107 | i | 1.1 | . | . | 6
O=C(COC(=O)CCc1nc2ccccc2c(=O)[nH]1)NCc1ccc(F)cc1 | . | 101 | i | 0.95 | . | . | .
CC(=O)c1cccc(CN2CCN(Cc3ccc(F)cc3)C(CCO)C2)c1 (centres undefined) | . | 118 | i | 0.87 | -20 | 106 | -5
COc1ccc(CC(=O)N2CCN=C2SCc2cccc([N+](=O)[O-])c2)cc1 | . | 101 | i | 0.83 | -217 | 84 | -1
CCCCOc1ccccc1NC(=O)CSc1nnnn1C(C)(C)C | -0.8 | 85 | i | 0.85 | . | . | 8
N/C(=N\OC(=O)CCCC(=O)O)c1ncc(C(F)(F)F)cc1Cl | . | 97 | i | 1 | . | . | 2
CCCC(=O)Nc1ccc(N2CCN(C(=O)c3cccs3)CC2)cc1 | -0.9 | 104 | i | 0.74 | 19 | 78 | 8
COc1ccc(CNC(=O)C(=O)NC2CCC(C)CC2)cc1 (centres undefined) | . | 100 | i | 0.73 | . | . | 2
COc1ccc(C2C(C#N)=C(N)Oc3c2oc(CO)cc3=O)c(OC)c1OC (centres undefined) | -4.5 | 100 | i | 0.9 | . | . | 5
COc1ccc(S(=O)(=O)Nc2nc3c(s2)CCCC3)cc1 | . | 95 | i | 0.93 | 43 | 110 | -4
CCC1CN(C)C2Cc3c([nH]c4ccccc34)C(=O)CC1C2C(=O)OC (centres undefined) | . | 100 | i | 0.92 | . | . | .
CC1(c2ccc(OCC#N)cc2)C=C(c2ccc(OCC#N)cc2)n2nc(C(F)(F)F)nc2N1 (centres undefined) | -0.5 | 99 | i | 0.64 | -14 | 99 | -13
COc1cc(NC(=O)c2cccc([N+](=O)[O-])c2C)ccc1NC(=O)c1ccco1 | 0.5 | 101 | i | 0.95 | 21 | 184 | 2
Cc1c(NS(=O)(=O)c2cc(C(=O)OCC(=O)N3CCC(C)CC3)ccc2Cl)c(=O)n(-c2ccccc2)n1C | . | 100 | i | 0.91 | -50 | 143 | 0
CN1c2ccsc2C(O)=C(C(=S)Nc2ccc(F)c(Cl)c2)S1(=O)=O | -2.3 | 102 | i | 0.98 | 53 | 125 | -2
O=C(O)c1cccc(-n2cccc2/C=C2\NC(=O)N(Cc3ccc(F)cc3)C2=O)c1 | . | 96 | i | 0.91 | . | . | 3
O=S(=O)(Nc1cccc2ccccc12)c1ccccc1 | . | 95 | i | 1.1 | . | . | .
COC(=O)CSc1nc(C)cc(N2CCOCC2)n1 | . | 106 | i | 0.9 | . | . | 1
CNC(=S)N1N=C(c2ccc(Br)cc2)CC1c1ccc(N(C)C)cc1 (centres undefined) | . | 104 | i | 1.1 | . | . | 7
O=C(Nc1cc(S(=O)(=O)N2CCOCC2)ccc1N1CCCC1)C1COc2ccccc2O1 (centres undefined) | . | 96 | i | 1 | . | . | .
O=C(Nc1cc(Cl)ccc1N1CCCCC1)c1cccs1 | -3.0 | 107 | i | 0.97 | -34 | 112 | -1
COc1ccc(-c2cc(C(F)(F)F)nc(SCc3cccc(C(=O)O)c3)n2)cc1 | 1.2 | 105 | i | 1.2 | . | . | -4
CCOc1nc(NC(C)C)nc(NC(C)C)n1 | -0.6 | 98 | i | 0.9 | 58 | 149 | -7
COC(=O)COc1ccc2c(=O)c(Oc3ccccc3)c(C)oc2c1 | -0.8 | 105 | i | 0.72 | -16 | 77 | -16
Cc1ccn2cc(CCNC(=O)C3CC=CCC3C(=O)O)nc2c1 (centres undefined) | . | 100 | i | 0.67 | . | . | .
CCc1ccc(C2=NNC(=Nc3c(C)n(C)n(-c4ccccc4)c3=O)SC2)cc1 | . | 97 | i | 0.91 | 50 | 135 | 1
CCOC(=O)c1cnn(-c2cc(C)nc3c(-c4ccccc4)c(C)nn23)c1N | -1.9 | 103 | i | 0.89 | 17 | 158 | -1
COc1ccc(C)cc1NS(=O)(=O)c1cn(C)c(=O)n(C)c1=O | -1.7 | 106 | i | 1 | . | . | -2
Cc1cc(N(C)/N=C/c2ccccc2)nc(-c2ccccc2O)n1 | . | 110 | i | 0.99 | . | . | -5
CCCCc1nnc(NC(=O)CS(=O)(=O)Cc2ccccc2)s1 | -3.1 | 102 | i | 0.96 | 36 | 130 | -13

Four successive entries out of the list so far, quoted:
SMILES | GALR2 ag | RGS16-Gao HTS | HSV augment | HSV augment primary fold | Insulin prom inh | Insulin prom inh cell count | PKD1 kinase inh
CCOC(=O)c1cnn(-c2cc(C)nc3c(-c4ccccc4)c(C)nn23)c1N | -1.9 | 103 | i | 0.89 | 17 | 158 | -1
COc1ccc(C)cc1NS(=O)(=O)c1cn(C)c(=O)n(C)c1=O | -1.7 | 106 | i | 1 | . | . | -2
Cc1cc(N(C)/N=C/c2ccccc2)nc(-c2ccccc2O)n1 | . | 110 | i | 0.99 | . | . | -5
CCCCc1nnc(NC(=O)CS(=O)(=O)Cc2ccccc2)s1 | -3.1 | 102 | i | 0.96 | 36 | 130 | -13
